# VDR inhibitor: Inhibitors of the vitamin D receptor (VDR): qHTS; Vitamin D3 receptor (Homo sapiens), P11473; VDR-SRC2-3 peptide fluorescence polarization, 2 h; Potency, µM, for the others: max response, negative = inhibition, most hits filed as inhibitors; 400,000 tested, 0.93% active; AID 504847, 2011; active = well fitted inhibition curve with a large enough effect; inconclusive = small, poorly fitted or top-dose-only effect, or another doubt; inactive = no such curve, though single readings can be large or run the other way; note: series mostly up to about 120 µM
# Target sequence (P11473 whole entry, looked up): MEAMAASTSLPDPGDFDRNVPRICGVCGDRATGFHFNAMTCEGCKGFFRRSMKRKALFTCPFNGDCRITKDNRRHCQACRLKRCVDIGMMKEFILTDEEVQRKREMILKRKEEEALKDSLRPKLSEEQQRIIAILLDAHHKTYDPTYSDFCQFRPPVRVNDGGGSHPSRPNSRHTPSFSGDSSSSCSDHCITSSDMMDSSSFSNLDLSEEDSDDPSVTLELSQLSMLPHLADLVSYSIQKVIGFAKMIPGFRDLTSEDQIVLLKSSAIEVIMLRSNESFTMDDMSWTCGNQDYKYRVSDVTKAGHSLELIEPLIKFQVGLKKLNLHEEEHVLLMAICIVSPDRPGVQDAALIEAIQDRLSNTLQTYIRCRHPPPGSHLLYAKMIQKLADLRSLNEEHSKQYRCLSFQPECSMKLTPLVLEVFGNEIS
#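 VDR–SRC2-3 interaction, FP format. Cmpds 23 nl via pintool, brief spin, 2 h ambient incubation.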
# Starred values were filed as active, the others as inactive; ? = inconclusive; & = joins results of further samples. % is set by controls: 0 for no effect and ±100 for the full control effect; potency is the fitted concentration of half-maximal effect.
SMILES,VDR inhibitor
COc1ccc(-c2cnc(SCCNC(=O)c3ccc4c(c3)OCO4)[nH]2)cc1,-20.1%
NC(=O)NC(=O)COC(=O)CCCSc1nc2ccccc2s1,-1.1%
CNC(=O)c1cc2ncc(C(F)(F)F)cc2s1,-6.6%
CC1CCCC(NS(=O)(=O)c2cccc3nsnc23)C1C (centres undefined),6.9%
CCC(=O)N(CCc1ccccc1)Cc1cc2cccc(C)c2[nH]c1=O,-16.6%
Cc1c(C(=O)N2CCN(CCc3ccccn3)CC2)oc2ccc(Cl)cc12,-9.8%
C/C(=N\NC(=S)Nc1ccc(C)cc1)c1cccc(N)c1,-12.0%
COC(=O)C(C)Sc1nc2c([nH]c3ccccc32)c(=O)n1-c1ccc(OC)cc1 (centres undefined),-1.2%
O=C(NCc1ccccc1Cl)C1CCN(S(=O)(=O)c2ccc3c(c2)CCCN3C(=O)C2CCC2)CC1,8.9%
CN(CC1CCCO1)S(=O)(=O)c1ccc(C(=O)Nc2ccc([N+](=O)[O-])cc2)cc1 (centres undefined),8.3%
COc1ccc(CO[C@@H]2O[C@H](CO)[C@@H](O)[C@H](O)[C@H]2NC(C)=O)cc1OC,10.6%
CC(=O)Nc1ccc(NC(=O)c2ccccc2S(=O)(=O)c2ccccc2[N+](=O)[O-])cc1,-9.5%

# Next part (2 carried over from the part before).
SMILES,VDR inhibitor
COc1ccc(CO[C@@H]2O[C@H](CO)[C@@H](O)[C@H](O)[C@H]2NC(C)=O)cc1OC,10.6%
CC(=O)Nc1ccc(NC(=O)c2ccccc2S(=O)(=O)c2ccccc2[N+](=O)[O-])cc1,-9.5%
Cc1ccc(OCc2nnc(SC(C)C(=O)O)n2Cc2ccccc2)cc1 (centres undefined),-21.7%
O=C1CSC(=S)N1Cc1cccs1,-7.4%
COC(=O)c1scc(-c2ccc(C)cc2)c1S(=O)(=O)Nc1ccc(NC(C)=O)cc1,-1.9%
COc1ccc(CNC(=O)CSc2nnc(NC(=O)C3CC3)s2)cc1,-4.1%
COc1ccc(C=NN=C2c3ccccc3-c3ccccc32)cc1O,-15.2%
O=c1c2ccccc2nc2ccccn12,7.2%
Cc1cccc(CSCCNC(=O)CCSc2ccccc2)c1,3.0%
Cc1ccsc1C(=O)OCC(=O)NCCc1ccccc1,-17.7%
COc1cccc(OCC(=O)NNC(=S)Nc2ccc(Cl)cc2Cl)c1,-9.8%
Cc1cc(O)c(C2(O)C(=O)Nc3ccccc32)cc1C (centres undefined),-6.2%
CCOC(=O)c1ccccc1NC1c2ccccc2C(=O)N1c1cc(C)ccn1 (centres undefined),-17.9%
O=C(Nc1cc(F)ccc1F)C1COc2ccccc2C1 (centres undefined),13.8%
CCn1cc(/C=C(\NC(=O)c2ccccc2OC)C(=O)NCCCn2ccnc2)c2ccccc21,6.8%
Cn1c(COc2ccccc2)nnc1SCC(=O)Nc1ccc(N2CCOCC2)cc1,11.3%
CCOc1ccc(CCNC(=O)CSc2cc(=O)n(C)c3cc(Cl)ccc23)cc1OCC,-11.9%&-3.3%
CCN(c1ccccc1)S(=O)(=O)c1ccc(Cl)c(C(=O)N2CCCC2)c1,-9.4%
CCOc1ccc(S(=O)(=O)N2CCC(C(=O)NCc3cccnc3)CC2)cc1C,9.7%
O=C(CCCN1C(=O)c2ccccc2C1=O)N1CCC(c2ccccc2)C1 (centres undefined),-5.7%
O=[N+]([O-])c1ccc(/C=N/Nc2nc(-c3ccccc3)c3cc(Br)ccc3n2)o1,10.0%
COc1ccc(Cn2c(C(=O)O)c(CNCc3ccccc3F)c3ccc(OC)cc32)cc1,1.0%
O=C(COc1ccccc1)N(Cc1nnc(-c2ccccc2Cl)o1)C1CC1,-18.4%
O=C(NC(=S)NCCCN1CCOCC1)c1ccc([N+](=O)[O-])cc1,-19.5%
Nc1c(Cl)ncnc1NCc1cccnc1,-15.2%
Cc1ccc(-n2c(-c3ccco3)n[nH]c2=S)cc1,-14.9%
CC1=CC(C)(C)N(C(=O)CNC2CCCCC2)c2cc(C)ccc21,9.9%
Cc1cc(C)cc(C(=O)NCC(=O)OCC(=O)c2cc(C)n(CC(F)(F)F)c2C)c1,-8.9%
COc1ccccc1N(C)S(=O)(=O)c1ccc(C)c(C(=O)Nc2nccs2)c1,-14.2%
CCN(CC)S(=O)(=O)c1ccc(NC(=O)COC(=O)CN2C(=O)c3ccccc3C2=O)cc1,5.7%
Cc1cc(C2C(C#N)=C(N)Oc3n[nH]c(C)c32)c(C)s1 (centres undefined),3.5%
Cc1cc(C)c(C(=O)COC(=O)Cn2c(C)csc2=O)cc1C,-7.9%
OC[C@H]1O[C@@H](n2cnc3c(NC4CCCC4)nc(Cl)nc32)[C@H](O)[C@@H]1O,-0.9%&-2.1%
CCC(=O)Nc1ccc(Oc2ccc3c(c2)C(=O)NC3=O)cc1,14.8%
CCCc1cc(=O)[nH]c(Nc2cc(Cl)cc(Cl)c2)n1,4.1%
F[B-](F)(F)c1cc2cc(Br)ccc2s1,14.1%
COc1ccc(C2CC(=O)N(CC(=O)Nc3ccc(C(F)(F)F)cc3)c3ccccc3S2)cc1 (centres undefined),8.9%
CC(C)(C)OC(=O)N1CCN(C(=O)c2[nH]cnc2C(=O)Nc2ccc(Cl)cc2)CC1,-16.3%
Cc1noc(C)c1NC(=O)Nc1ccc2c(c1)C(=O)N([C@H](C)CO)C[C@H](C)[C@@H](CN(C)S(=O)(=O)c1ccc(F)cc1)O2,3.8%
Cc1nc2cc(-c3cccs3)[nH]n2c(=O)c1C,3.1%
CN(C)c1nc(Nc2ccc(Cl)cc2)nc(OCC#N)n1,-5.5%
CCN1CCN(S(=O)(=O)c2cccc3nsnc23)CC1,-8.8%
Cc1ccc(-n2ccnc(SCC(=O)NC3CCCC3)c2=O)cc1F,-13.3%
CCc1cccc(CC)c1NC(=S)NCCc1ccc(O)c(O)c1,-21.7%
CC(C)C(NC(=S)Nc1ccccc1)C(=O)O (centres undefined),-11.9%
CC(C)CC(OC(=O)c1ccco1)C(=O)NC1CCCCC1 (centres undefined),3.2%
O=C1CC(c2ccco2)Cc2nc(Nc3nc(-c4ccccc4)c4ccccc4n3)ncc21 (centres undefined),-0.2%
C/C(CC(=O)NC12CC3CC(CC(C3)C1)C2)=N\NC(=O)Cc1cccs1,-7.8%
c1ccc2c(c1)[nH]c1c(N3CCOCC3)ncnc12,-11.8%
COC(=O)c1c(C)oc(C)c1S(=O)(=O)NCC1CC1,14.7%
Cc1cc(=O)n2c3c(c4c(cc13)c(CN(C)C)cc(=O)n4C)OC2,-9.0%
CCOC(=O)c1nc(N2CCN(C(=O)OCC)CC2)c2c3c(sc2n1)CCCC3,-21.5%
COC(=O)c1cc(NC(=O)C2CC=CCC2C(=O)O)cc(C(=O)OC)c1 (centres undefined),4.4%
COc1ccc(CCNC(=O)C2CCCN2C(=O)Nc2ccc(C)cc2)cc1OC (centres undefined),4.0%
Cc1c(CCNS(=O)(=O)c2ccccc2)sc2nc(-c3ccc(Cl)cc3)nn12,9.2%
O=C1CC(N2CCN(c3ccccc3)CC2)C(=O)N1Cc1ccc(Cl)cc1 (centres undefined),-3.5%
Cc1ccc2nc(-c3ccc(NC(=S)NC4CC(C)(C)NC(C)(C)C4)cc3)sc2c1,5.3%
COc1ccc(NC(=O)c2ccco2)cc1NC(=O)c1cccc(F)c1,17.6%
CN(C(=O)c1ccc2c(=O)n3c(nc2c1)CCCCC3)c1ccccc1F,4.1%
COc1ccccc1CNC(=O)C1CCC1,1.3%
Cc1ccc(NC(=O)COc2coc(CN3CCN(c4ccccc4)CC3)cc2=O)cc1,-9.5%
CC(C)(C)N1CC(C(=O)Nc2ccc(S(=O)(=O)N3CCCCC3)cc2)CC1=O (centres undefined),-23.4%

# The list goes on.
SMILES,VDR inhibitor
CCN(CC)c1ccc(NC(=O)c2ccco2)c(C)c1,8.1%
C=CCNc1nnc(Cc2ccc(C(C)C)cc2)c(=O)[nH]1,0.9%
CCOc1cc(/C=C2/C(=N)N3C(=NC2=O)SN=C3S(=O)(=O)C(C)C)ccc1OC(=O)c1ccco1,?
Cc1ccc(-c2cc(C(=O)Nc3c(C#N)cnn3C)no2)cc1,-1.2%
CN(C)c1nc(C=C(C#N)C#N)c(Cl)n1-c1ccc(F)cc1,25.1µM*
Cc1cc(C)cc(N(CC(=O)NC2CCCCC2)C(=O)CNC(=O)c2ccco2)c1,-0.5%
O=C(Nc1ccc(N2CCN(C(=O)c3cccs3)CC2)cc1)c1cccc(F)c1,-2.5%
Cc1ccc(SSc2cc(C)ccc2N)c(N)c1,6.31µM*
COc1ccc(NS(=O)(=O)c2cc(NC(=O)c3cccs3)ccc2N2CCOCC2)cc1,-9.9%
CCCCS(=O)Cc1ccccc1 (centres undefined),-11.9%
O=C1N(Cc2cccc(Cl)c2)C[C@@H]2C[C@@H](c3cccc4ncccc34)N3CCC[C@@]123,-14.3%
CCCN1C(=O)/C(=N\OCC(=O)NC23CC4CC(CC(C4)C2)C3)c2ccccc21,-8.4%
Cc1ccc(-c2nn(C)c(=O)c3ccccc23)cc1CNC(=O)CN1CCOCC1,-11.2%
COc1ccc(NC(=O)CSc2nnc(C)n2C2CCCCC2)cc1,-8.0%
COC(=O)c1ccc(NC(=O)c2cnn(-c3ccc(Cl)cc3)c2C2CCN(C(=O)OC(C)(C)C)CC2)cc1,-9.4%
CCOC(=O)C(=O)N(CC)C1CCS(=O)(=O)C1 (centres undefined),-14.4%
Cc1ccc(NC(=O)Cn2cc(S(=O)(=O)Cc3ccc(F)cc3)c3ccccc32)cc1Cl,11.4%
COc1ccccc1-c1coc2c(CN3CCN(C)CC3)c(O)ccc2c1=O,-11.5%
Cc1[nH]c2ccccc2c1/C=N\NC(=O)CNc1ccc2c(c1)OCO2,6.8%
Cc1cccc(NS(=O)(=O)c2ccc3c(c2)NC(=O)CC(=O)N3)c1,-4.4%
COc1ccc(C2C(C(=O)NCc3ccccn3)c3cc(OC)c(OC)cc3C(=O)N2C)cc1 (centres undefined),11.8%
O=C(CSc1ncc(-c2ccccc2)n1C1CCCC1)N1CCc2ccccc21,9.5%
CCn1c(=O)c2cc(C(=O)NCc3ccc(F)cc3Cl)sc2c2ccccc21,-8.8%
O=C(Nc1cnc2sccn2c1=O)c1ccccc1Cl,3.5%
O=S(=O)(CCc1nc2ccccc2o1)c1ccc(Cl)cc1,3.5%
NC(=O)CC(NC(=O)Cc1ccc(Br)cc1)c1ccc(NCCc2ccccc2F)c([N+](=O)[O-])c1 (centres undefined),2.9%
CCc1c(C)nc2ncnn2c1N1CCC(C(=O)NCc2cccc(OC)c2)CC1,?
CC(=O)N1CCOc2cc(S(=O)(=O)N(C)Cc3ccccc3)c(Cl)cc21,-3.6%
O=C(c1ccccc1)N1CCCCC(Sc2nnc3ccccn23)C1=O (centres undefined),3.0%
CC(C)(C)NC(=O)NC(=O)COC(=O)COc1ccc(Cl)cc1Cl,?
O=C(Nc1ccc(Cl)cc1)c1cc(S(=O)(=O)N2CCCc3ccccc32)ccc1F,7.2%
COC(=O)c1cn(NC(=O)c2ccc(OC)c([N+](=O)[O-])c2)c(=O)c2ccccc12,-14.1%
CCn1ccc(C(=O)Nc2ccc3c(c2)CCC3)n1,7.2%
Cc1cc(N2CCCC2)c(C)cc1C=O,-7.7%
O=C(COc1coc(CN2CCCc3ccccc32)cc1=O)Nc1ccc([N+](=O)[O-])cc1,-6.1%
Cc1c(OC(C(=O)O)c2ccccc2)ccc2c3c(c(=O)oc12)CCC3 (centres undefined),11.5%
O=C(Cn1nc2c(cc1=O)CCCC2)Nc1ccccc1C(F)(F)F,1.2%
COc1cccc(-c2nc3sc4c(c3c(=O)[nH]2)CCCCC4)c1,-7.3%
O=C(CN1CCN(c2ccc(O)cc2)CC1)Nc1ccc(-c2ccccc2)cc1,-12.3%
Cc1ccccc1S(=O)(=O)Cc1ccc(C(=O)NCc2ccco2)o1,?
Cc1cc(NC(=O)CSc2nnc(-c3ccc(S(=O)(=O)N4CCCC4)cc3)n2C)no1,11.5%
O=C(NCc1ccccc1)c1nc2c(nnn2Cc2cccc(Cl)c2)c(=O)[nH]1,-5.0%
CCS(=O)(=O)c1ccc(O)c(NC(=O)COc2ccc(C)cc2)c1,?
COc1ccc2c(CSc3nnc(-c4cccnc4)n3-c3ccccc3F)cc(=O)oc2c1,-6.9%
OC1(c2ccc(F)cc2)CN(c2ccccc2)C2=[N+]1CCS2 (centres undefined),-15.3%
O=[n+]1c2c(n([O-])c3cc(Br)ccc31)CCCC2,-7.8%
O=C(Cn1nc(-c2ccccc2)nc(Cc2ccccc2)c1=O)Nc1ccccc1,4.4%
Cc1cc(N2CCCCC2)nc(SCc2ccc(C#N)cc2)n1,-5.3%

# Looked up above:
# `OC1(c2ccc(F)cc2)CN(c2ccccc2)C2=[N+]1CCS2` (centres undefined) in VDR inhibitor is entered as -15.3%
# `Cc1cc(N2CCCCC2)nc(SCc2ccc(C#N)cc2)n1` in VDR inhibitor is entered as -5.3%
# `Cc1cc(NC(=O)CSc2nnc(-c3ccc(S(=O)(=O)N4CCCC4)cc3)n2C)no1` in VDR inhibitor is entered as 11.5%
# `O=C(Cn1nc2c(cc1=O)CCCC2)Nc1ccccc1C(F)(F)F` in VDR inhibitor is entered as 1.2%
# `COc1cccc(-c2nc3sc4c(c3c(=O)[nH]2)CCCCC4)c1` in VDR inhibitor is entered as -7.3%

# (listing goes on)
SMILES,VDR inhibitor
COc1ccc(C(=O)NCc2nnc(SCC(=O)Nc3cccc(OC)c3)o2)cc1,-22.7%
O=C(O)/C=C/c1ccccc1Oc1ccccc1,14.7%
Cc1ccc(C(=O)n2nc(C)c(S(=O)(=O)N3CCCCCC3)c2C)cc1,13.0%
CCOC(=O)Nc1sc2c(c1C#N)CCCC2,-3.8%
O=C(NCCCn1ccnc1)c1ccc(-c2ccccc2)cc1,-10.0%
Cc1ccc(NC(=O)c2sc3nc4c(cc3c2N)CN(Cc2ccccc2)CC4)cc1,4.5%

# Records listed so far that bear a hit mark in VDR inhibitor:
SMILES,VDR inhibitor
CN(C)c1nc(C=C(C#N)C#N)c(Cl)n1-c1ccc(F)cc1,25.1µM*
Cc1ccc(SSc2cc(C)ccc2N)c(N)c1,6.31µM*

# These rows are one share of the data (hit frequency here may not be typical).
